AF4-AF9 inh: inhibitors of AF4 peptide binding to AF9, primary screen, biochemical, AlphaScreen, biotin-AF4 peptide, FLAG-AF9, single point | inhibition, % at 10 µM | 350,000 compounds, 0.47% hits | Protein AF-9 (Homo sapiens), P42568 | AID 651704, 2012;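 active = every replicate reaching a set inhibition limit, whatever the replicate mean, cut at about 25% in these data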;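 also: 0% = plate neutral control median and 100% = total signal loss; the record names both 10 and 1 µM as test concentration; the first replicate is given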
Target sequence (P42568 whole entry, looked up): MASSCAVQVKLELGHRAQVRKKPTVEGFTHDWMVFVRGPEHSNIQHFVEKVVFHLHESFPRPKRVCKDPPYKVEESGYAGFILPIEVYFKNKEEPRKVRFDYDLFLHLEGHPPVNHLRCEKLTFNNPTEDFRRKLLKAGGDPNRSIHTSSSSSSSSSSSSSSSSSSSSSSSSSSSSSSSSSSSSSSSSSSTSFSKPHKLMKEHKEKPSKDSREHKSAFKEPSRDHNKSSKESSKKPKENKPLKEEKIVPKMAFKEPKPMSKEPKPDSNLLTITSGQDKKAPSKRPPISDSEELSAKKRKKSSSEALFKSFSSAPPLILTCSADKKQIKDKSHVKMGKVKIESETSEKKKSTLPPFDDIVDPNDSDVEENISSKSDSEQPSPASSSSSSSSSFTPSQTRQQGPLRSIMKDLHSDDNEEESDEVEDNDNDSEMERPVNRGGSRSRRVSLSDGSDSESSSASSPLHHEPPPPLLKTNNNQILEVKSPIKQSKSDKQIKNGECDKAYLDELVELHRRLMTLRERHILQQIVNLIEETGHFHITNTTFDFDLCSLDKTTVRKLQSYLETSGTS
An asterisk follows results filed as active; & = joins results of further samples.

SMILES | AF4-AF9 inh
Cc1noc(C)c1NC(=O)N(C)C[C@H]1OCCCC[C@H](C)Oc2ccc(NC(=O)Cc3ccccc3)cc2C(=O)N([C@H](C)CO)C[C@@H]1C | -6.3
Cc1noc(C)c1NC(=O)N(C)C[C@H]1OCCCC[C@@H](C)Oc2ccc(NC(=O)Cc3ccccc3)cc2C(=O)N([C@@H](C)CO)C[C@H]1C | -2.8
COc1ccc(NC(=O)N(C)C[C@@H]2Oc3ncc(C#C[C@@H](C)O)cc3C(=O)N([C@H](C)CO)C[C@@H]2C)cc1 | -2.4
CCC(=O)Nc1ccc2c(c1)OC[C@H](C)N(CC1CC1)C[C@H](C)[C@@H](OC)CN(C)C2=O | -2.0
N#C[C@H]1[C@@H](c2ccc(-c3ccccc3F)cc2)[C@H](CO)N1C(=O)c1ccccn1 | -1.2
CN(C)C(=O)c1cccc(-c2ccc(C3[C@@H]4CN(S(=O)(=O)c5ccc(F)cc5)C[C@H]3N4)cc2)c1 (stereo not given in full) | -0.1&-2.7
COc1cccc(-c2ccc3c(c2)[C@H]2[C@H](CCN2C(=O)Nc2ccccc2OC)[C@@H](CO)N3C)c1 | 5.3
CC1(C(=O)NCCc2c[nH]c3ccccc23)CCN1Cc1csc2ccccc12 (stereo not given) | 0.2
O=C(Cc1ccccc1)N1C[C@@H]2[C@H](c3ccccc31)[C@H](CO)N2C(=O)C1CC1 | 0.3
CO[C@@H]1CN(C)C(=O)c2ccc(NC(=O)C3CC3)cc2OC[C@@H](C)NC[C@H]1C | -1.0
Cc1noc(C)c1S(=O)(=O)Nc1cccc2c1O[C@H](CN(C)Cc1ccc(C(=O)Nc3ccccc3N)cc1)[C@H](C)CN([C@@H](C)CO)C2=O | 2.3
COCCNC(=O)C1(C)CCCN(Cc2cccc(OC(=O)c3ccccc3)c2)C1 (stereo not given) | 4.5

Rewritten in CSV form: part of the list above.
Compound,AF4-AF9 inh
COCCNC(=O)C1(C)CCCN(Cc2cccc(OC(=O)c3ccccc3)c2)C1 (stereo not given),4.5
COc1ccc(NC(=O)N(C)C[C@@H]2Oc3ncc(C#C[C@@H](C)O)cc3C(=O)N([C@H](C)CO)C[C@@H]2C)cc1,-2.4
O=C(Cc1ccccc1)N1C[C@@H]2[C@H](c3ccccc31)[C@H](CO)N2C(=O)C1CC1,0.3
CC1(C(=O)NCCc2c[nH]c3ccccc23)CCN1Cc1csc2ccccc12 (stereo not given),0.2

The list goes on.
SMILES | AF4-AF9 inh
C[C@H](CO)N1C[C@H](C)[C@H](CN(C)Cc2ccc(Cl)c(Cl)c2)Oc2ccc(NC(=O)CCC(F)(F)F)cc2C1=O | -0.7
C[C@@H]1CCCCO[C@@H](CN(C)C(=O)C2CCCCC2)[C@@H](C)CN([C@H](C)CO)C(=O)c2cc(NC(=O)Nc3ccc(F)cc3)ccc2O1 | 0.4
C[C@H](CO)N1C[C@H](C)[C@H](CN(C)Cc2ccc3c(c2)OCO3)Oc2ncc(-c3ccc(F)cc3)cc2C1=O | 4.4
C[C@H](CO)N1C[C@H](C)[C@H](CN(C)Cc2ccccc2C(F)(F)F)OCc2cn(nn2)CCCC1=O | 0.0
C[C@@H]1CCCCO[C@H](CN(C)C(=O)CCC(F)(F)F)[C@@H](C)CN([C@H](C)CO)C(=O)c2cc(NS(=O)(=O)c3ccccc3)ccc2O1 | -2.7
Cc1noc(C)c1NC(=O)Nc1cccc2c1O[C@@H](CN(C)S(=O)(=O)c1ccc(F)cc1)[C@@H](C)CN([C@@H](C)CO)C2=O | -9.4
Cc1noc(C)c1NC(=O)Nc1ccc2c(c1)C(=O)N([C@H](C)CO)C[C@H](C)[C@H](CN(C)C(=O)Cc1ccccc1)OCCCC[C@H](C)O2 | 1.2
CN(Cc1ccccc1)C(=O)COC(=O)c1c[nH]c2ccccc12 | -17
C[C@H](CO)N1C[C@H](C)[C@@H](CN(C)Cc2ccc3c(c2)OCO3)Oc2ccc(NS(=O)(=O)c3cccs3)cc2CC1=O | 4.6
O=C(C[C@H]1CC[C@@H]2[C@H](COC[C@@H](O)CN2C(=O)c2ccccc2F)O1)NCc1ccc(Cl)cc1 | -1.1
CC(C)CC#Cc1ccc2c(c1)O[C@H](CN(C)Cc1cncnc1)[C@@H](C)CN([C@@H](C)CO)S2(=O)=O | 7.8
CC1(C(=O)NS(=O)(=O)c2ccc(Cl)s2)CCN1C(=O)CCc1ccccc1 (stereo not given) | -1.6

Three consecutive compounds out of the list so far, for reference:
SMILES | AF4-AF9 inh
C[C@H](CO)N1C[C@H](C)[C@H](CN(C)Cc2ccc(Cl)c(Cl)c2)Oc2ccc(NC(=O)CCC(F)(F)F)cc2C1=O | -0.7
C[C@@H]1CCCCO[C@@H](CN(C)C(=O)C2CCCCC2)[C@@H](C)CN([C@H](C)CO)C(=O)c2cc(NC(=O)Nc3ccc(F)cc3)ccc2O1 | 0.4
C[C@H](CO)N1C[C@H](C)[C@H](CN(C)Cc2ccc3c(c2)OCO3)Oc2ncc(-c3ccc(F)cc3)cc2C1=O | 4.4

Next section:
SMILES | AF4-AF9 inh
CCCC#Cc1cnc2c(c1)C(=O)N([C@@H](C)CO)C[C@H](C)[C@@H](CN(C)C(=O)C1CC1)O2 | -0.5
C[C@H](CO)N1C[C@H](C)[C@@H](CN(C)S(=O)(=O)c2ccccc2F)Oc2cc(-c3ccncc3)ccc2S1(=O)=O | 4.1
CCN1/C(=C/c2ccc3cc(C)ccc3[n+]2C)Sc2ccc3sccc3c21 | 16
O=C(C[C@H]1CC[C@@H]2[C@H](COC[C@H](O)CN2S(=O)(=O)c2ccccc2)O1)NCCN1CCCCC1 | 0.4
Cc1noc(C)c1S(=O)(=O)N(C)C[C@H]1Oc2c(NC(=O)c3cnccn3)cccc2C(=O)N([C@@H](C)CO)C[C@H]1C | -3.3
CNC(=O)C[C@H]1CC[C@H]2[C@H](COc3ccc(NC(=O)Nc4cccc(C)c4)cc3C(=O)N2C)O1 | 2.3
Brc1ccc(-c2nnc3sc(CN4CCc5ccccc5C4)cn23)cc1 | -2.7
C[C@@H]1CN([C@@H](C)CO)C(=O)c2cc(NC(=O)Cc3ccccc3)ccc2O[C@H]1CN(C)Cc1ccc(C(F)(F)F)cc1 | 0.6
CCC(=O)N(C)C[C@@H]1Oc2cc(C3=CCCC3)ccc2S(=O)(=O)N([C@H](C)CO)C[C@@H]1C | -3.2
COc1cccc(C(O)c2nc(-c3cccc(C#N)c3)cs2)c1 (stereo not given) | -11
COCCNC(=O)C1(C)CCCN(Cc2cc(-c3ccccc3)n(C)n2)C1 (stereo not given) | -2.4
COc1ccc(S(=O)(=O)Nc2ccc3c(c2)C(=O)N([C@@H](C)CO)C[C@H](C)[C@@H](CN(C)S(=O)(=O)c2cn(C)cn2)OCCCC[C@H](C)O3)cc1 | -1.2
COC(=O)[C@]12C[C@H](CC(=O)NCc3ccc(C)o3)C(=O)N(Cc3ccccc3)C1=C[C@H](C1CCCC1)O[C@@H]2C | 0.2
O=C(C[C@H]1CC[C@H]2NC[C@H](O)COC[C@@H]2O1)NCCN1CCCC1 | 2.4
COc1ccccc1NC(=O)N[C@H]1CC[C@@H](CCn2cc(-c3ccccc3)nn2)O[C@@H]1CO | 1.9
C[C@H](CO)N1C[C@H](C)[C@H](CN(C)S(=O)(=O)c2ccc(F)cc2)Oc2ncc(-c3cccc(C(F)(F)F)c3)cc2C1=O | -4.8
O=C(C[C@@H]1C=C[C@@H](NS(=O)(=O)c2ccc(F)cc2)[C@H](CO)O1)NC1CCCCC1 | -0.8
Nc1ncc(-c2ccc(F)cc2)nc1N1CCN(CCO)CC1 | 3.0
COc1ccc(S(=O)(=O)Nc2ccc3c(c2)CC(=O)N([C@H](C)CO)C[C@@H](C)[C@H](CN(C)CC2CC2)O3)cc1 | -2.5
C[C@@H]1CCCCO[C@H](CN(C)C(=O)C2CCCCC2)[C@@H](C)CN([C@@H](C)CO)C(=O)c2cc(NS(=O)(=O)c3ccccc3)ccc2O1 | 5.0
N#C/C(=C\c1ccc(-c2ccc(C(=O)O)cc2)o1)c1nc2ccccc2[nH]1 | -2.2
COc1ccc(NC(=O)N[C@H]2C=C[C@@H](CC(=O)NCc3ccccn3)O[C@H]2CO)cc1 | -1.8
C[C@@H]1CCCCO[C@H](CN(C)S(=O)(=O)c2cccs2)[C@@H](C)CN([C@H](C)CO)C(=O)c2cc(NS(=O)(=O)c3cn(C)cn3)ccc2O1 | -1.4
CCC(=O)Nc1ccc2c(c1)C(=O)N(C)C[C@H](OC)[C@H](C)CN(CC1CC1)[C@H](C)CO2 | -1.0
CCNC(=O)C[C@@H]1CC[C@@H]2[C@H](COC[C@@H](O)CN2C(=O)C2CCOCC2)O1 | -1.7
CO[C@@H]1CN(C)C(=O)c2cc(NC(=O)C3CCC3)ccc2OC[C@@H](C)N(C(=O)NC(C)C)C[C@@H]1C | 1.1
O=C(N[C@H]1CC[C@@H](CCNS(=O)(=O)Cc2ccccc2)O[C@H]1CO)c1ccc2c(c1)OCO2 | 0.1
COc1ccc(CN(C)C[C@H]2OCCCC[C@@H](C)Oc3ccc(NS(=O)(=O)c4ccc(F)cc4)cc3C(=O)N([C@@H](C)CO)C[C@H]2C)cc1 | 5.0
CCCCn1nnnc1C(c1ccccc1OC(F)(F)F)N1CCN(C/C=C/c2ccccc2)CC1 (stereo not given) | -3.5
CCN1C[C@@H]2[C@@H]3C(=O)N(C)C(=O)[C@@H]3[C@](CC)(C1=O)N2C(=O)c1ccc(Cl)cc1 | -11
CC(C)CC#Cc1cnc2c(c1)C(=O)N([C@@H](C)CO)C[C@H](C)[C@@H](CN(C)S(=O)(=O)c1cn(C)cn1)O2 | -3.3
Cc1cccc(C)c1-n1nnnc1SCc1nc(N)nc(N(C)C)n1 | -1.7
COc1ccc(S(=O)(=O)N(C)C[C@@H]2Oc3ccc(NC(=O)Nc4cccc5ccccc45)cc3C(=O)N([C@@H](C)CO)C[C@@H]2C)cc1 | -0.4
CN(C)CC(=O)N1[C@H](C#N)[C@@H](c2ccc(-c3ccccc3F)cc2)[C@@H]1CO | 0.7
C[C@@H](NC(=O)[C@@H]1CCCN1C(=O)[C@@H]1CCCN1C(=O)c1cccs1)c1ccccc1 | -1.2
O=C(Nc1cccc(F)c1)N1C[C@H]2[C@@H](c3ccccc31)[C@@H](CO)N2C(=O)Cc1ccccc1 | 0.8
CC(C)C[C@@H]1COCc2cn(nn2)CC[C@H](C)C(=O)N1 | -12
O=C(C[C@@H]1CC[C@H](NS(=O)(=O)c2ccc(F)cc2)[C@H](CO)O1)NC1CCC1 | -4.6
C[C@@H]1CCCCO[C@@H](CN(C)C(=O)Nc2cccc3ccccc23)[C@@H](C)CN([C@H](C)CO)C(=O)c2cc(NC(=O)CCCCCC(=O)Nc3ccccc3N)ccc2O1 | 1.3
O=C(c1ccccc1F)N1C[C@H]2[C@@H](c3ccccc31)[C@H](CO)N2C(=O)c1ccncc1 | 0.8
C[C@@H]1CN([C@@H](C)CO)C(=O)c2cc(/C=C/c3ccccc3)cnc2O[C@H]1CN(C)S(=O)(=O)c1cccs1 | -0.3
CC(C)C#Cc1ccc2c(c1)O[C@@H](CN(C)Cc1ccccn1)[C@H](C)CN([C@@H](C)CO)S2(=O)=O | 2.6
COCCOC(=O)N1C(=O)[C@@]2(c3cc(C#CCC(C(=O)OC)C(=O)OC)ccc31)[C@H](c1ccccc1OCCO)N1[C@H](c3ccccc3)[C@H](c3ccccc3)OC(=O)[C@H]1[C@@H]2C(=O)NC[C@H](O)c1ccccc1 | -1.8
COC(=O)[C@]12C[C@H](CC(=O)N3CCSCC3)C(=O)N(Cc3ccc4c(c3)OCO4)C1=C[C@H](COCc1ccccc1)O[C@@H]2C | 0.7
Cc1ccc(S(=O)(=O)Nc2ccc3c(c2)C(=O)N([C@@H](C)CO)C[C@@H](C)[C@@H](CN(C)Cc2ccc4c(c2)OCO4)O3)cc1 | 9.6
CC(C)Oc1cccc(C(=O)Nc2nnc([C@@H]3C[C@H](O)[C@@H](CO)O3)s2)c1 | -3.2
C[C@@H](NC(=O)C[C@@H]1C[C@@H]2c3cc(NC(=O)C4CCOCC4)ccc3O[C@@H]2[C@H](CO)O1)c1ccccc1 | -2.6
CC(C)CC#Cc1ccc2c(c1)O[C@@H](CN(C)C(=O)c1cccc(F)c1)[C@@H](C)CN([C@@H](C)CO)S2(=O)=O | 1.6
COc1ccc(OC)c(/C=C/C(=O)N2CCN(S(=O)(=O)c3ccc(C)cc3C)CC2)c1 | 0.5
CCCN1[C@@H]2Cn3c(ccc(/C=C/c4ccccc4)c3=O)[C@H]1[C@@H](C(=O)NCC1CC1)[C@@H]2CO | -10
COc1ccc(CN(C)C[C@@H]2Oc3c(NC(=O)C4CC4)cccc3C(=O)N([C@@H](C)CO)C[C@H]2C)cc1 | -0.2
Cc1ccc(S(=O)(=O)Nc2ccc3c(c2)C(=O)N([C@H](C)CO)C[C@H](C)[C@@H](CN(C)Cc2ccc(C(=O)O)cc2)OCCCC[C@@H](C)O3)cc1 | -3.2
COc1ccc(NC(=O)Nc2ccc3c(c2)[C@H]2C[C@H](CC(=O)N4CCN(C)CC4)O[C@H](CO)[C@H]2O3)cc1 | 11
C[C@@H]1CN([C@@H](C)CO)C(=O)c2cc(NC(=O)Nc3ccc(F)cc3)ccc2O[C@@H](C)CCCCO[C@H]1CN(C)CC1CC1 | 15
CCCN(C)C[C@@H]1Oc2cc(C#Cc3cccc(OC)c3)ccc2S(=O)(=O)N([C@H](C)CO)C[C@@H]1C | 6.4
C[C@H](CO)N1C[C@H](C)[C@H](CN(C)Cc2ccc(Cl)c(Cl)c2)Oc2ccc(NC(=O)CCN3CCOCC3)cc2CC1=O | 0.6
COc1ccccc1NC(=O)N[C@@H]1CC[C@@H](CCNS(=O)(=O)c2ccc(C)cc2)O[C@@H]1CO | -1.6

Only part of the results is shown. The share of hits here may be higher or lower than overall.
